Compound activity (PubChem BioAssay)
Vaccinia stage – blocks a specific stage of Vaccinia orthopoxvirus infection, primary screen, cell-based, single point; activity change (mCherry), % (test concentration not listed); 89,000 tested, 0.01% active; Vaccinia-infected cells, mCherry/Venus stage reporter fluorescence; stronger effect = lower value; some inactives read as strong as hits;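 active = mCherry past -33% and 40 or more points under the early reporter, replicates agreeing; inconclusive = past -33% without that gap or agreement; tested in A549 cells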;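 also: scaled between vehicle wells and reference inhibitor wells; 23 nL library stock went into each well; one replicate is shown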
Vaccinia stage Venus – recorded beside Vaccinia stage, whose call it bears; activity change (Venus), %; measured here: Venus reporter, other viral stage;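 negative = less Venus signal; first of two replicates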
Active calls of the source: *; ? = inconclusive; · = no result given. An excerpt; count on the stated rates, not on these rows.

SMILES | Vaccinia stage | Vaccinia stage Venus
Cc1ccc(S(=O)(=O)N(C)C[C@@H]2OCCCC[C@@H](C)Oc3ccc(NC(=O)Nc4c(C)noc4C)cc3C(=O)N([C@@H](C)CO)C[C@H]2C)cc1 | 16 | 5
N#C[C@H]1[C@H](c2ccccc2C2=CCCCC2)[C@@H](CO)N1C(=O)NC1CCCCC1 | -13 | -12
CO[C@H]1CN(C)C(=O)c2ccc(NS(=O)(=O)c3cccc(F)c3)cc2OC[C@@H](C)N(C(=O)Cc2cccnc2)C[C@H]1C | 14 | 9
COc1ccc(S(=O)(=O)Nc2cccc3c2O[C@@H](CN(C)C(=O)NC2CCCCC2)[C@@H](C)CN([C@@H](C)CO)C3=O)cc1 | -7 | -4
COc1ccc(S(=O)(=O)N[C@@H]2CC[C@H](CCn3cc(C(C)C)nn3)O[C@H]2CO)cc1 | -6 | -7
COc1cccc(S(=O)(=O)N(C)C[C@@H]2Oc3cc(C4=CCCC4)ccc3S(=O)(=O)N([C@@H](C)CO)C[C@H]2C)c1 | 4 | 11
CCCNC(=O)N1[C@@H](C#N)[C@H](c2ccc(C3=CCCCC3)cc2)[C@@H]1CO | ? | ·
O=C(O)C[C@H]1C[C@@H]2c3cc(NC(=O)C4CCOCC4)ccc3O[C@@H]2[C@H](CO)O1 | 31 | 25
COC(=O)C[C@@H]1CC[C@H]2[C@@H](COc3ccc(NC(=O)Nc4cccc(C)c4)cc3C(=O)N2C)O1 | 9 | 4
O=C(NCC[C@@H]1CC[C@H](NS(=O)(=O)Cc2ccccc2)[C@@H](CO)O1)C1CCOCC1 | 3 | -1
C[C@@H]1CN([C@H](C)CO)C(=O)c2cc(NS(=O)(=O)c3cccs3)ccc2O[C@@H]1CN(C)Cc1ccc(C(F)(F)F)cc1 | -22 | -20
COc1ccc(NC(=O)N(C)C[C@H]2OCCCC[C@H](C)Oc3ccc(NC(=O)NC4CCCCC4)cc3C(=O)N([C@H](C)CO)C[C@H]2C)cc1 | 19 | 4
C[C@@H]1CCCCO[C@@H](CN(C)C(=O)c2ccccc2)[C@@H](C)CN([C@H](C)CO)C(=O)c2cc(NC(=O)Nc3ccc(F)cc3)ccc2O1 | 32 | 18
Cc1ccccc1NC(=O)Nc1ccc2c(c1)C(=O)N(C)[C@@H]1CC[C@@H](CC(=O)NCC3CC3)O[C@@H]1CO2 | 11 | 8
COc1ccccc1-c1cn(CC[C@H]2CC[C@H](NC(=O)C3CCC3)[C@@H](CO)O2)nn1 | -16 | -6

Random excerpt: four records from the list
SMILES | Vaccinia stage | Vaccinia stage Venus
C[C@@H]1CCCCO[C@@H](CN(C)C(=O)c2ccccc2)[C@@H](C)CN([C@H](C)CO)C(=O)c2cc(NC(=O)Nc3ccc(F)cc3)ccc2O1 | 32 | 18
C[C@@H]1CN([C@H](C)CO)C(=O)c2cc(NS(=O)(=O)c3cccs3)ccc2O[C@@H]1CN(C)Cc1ccc(C(F)(F)F)cc1 | -22 | -20
CCCNC(=O)N1[C@@H](C#N)[C@H](c2ccc(C3=CCCCC3)cc2)[C@@H]1CO | ? | ·
COc1ccc(NC(=O)N(C)C[C@H]2OCCCC[C@H](C)Oc3ccc(NC(=O)NC4CCCCC4)cc3C(=O)N([C@H](C)CO)C[C@H]2C)cc1 | 19 | 4

Single records, as listed above:
O=C(NCC[C@@H]1CC[C@H](NS(=O)(=O)Cc2ccccc2)[C@@H](CO)O1)C1CCOCC1 across the screens: Vaccinia stage = 3; Vaccinia stage Venus = -1
O=C(O)C[C@H]1C[C@@H]2c3cc(NC(=O)C4CCOCC4)ccc3O[C@@H]2[C@H](CO)O1 across the screens: Vaccinia stage = 31; Vaccinia stage Venus = 25
CO[C@H]1CN(C)C(=O)c2ccc(NS(=O)(=O)c3cccc(F)c3)cc2OC[C@@H](C)N(C(=O)Cc2cccnc2)C[C@H]1C across the screens: Vaccinia stage = 14; Vaccinia stage Venus = 9

(listing goes on)
SMILES | Vaccinia stage | Vaccinia stage Venus
C[C@H](CO)N1C[C@H](C)[C@H](CN(C)C(=O)Nc2ccccc2)Oc2ncc(C#Cc3cccc(F)c3)cc2C1=O | ? | ·
C[C@@H]1CN([C@@H](C)CO)C(=O)c2cccc(N(C)C)c2O[C@@H]1CN(C)Cc1ccncc1 | 0 | 0
CCC(=O)N(C)C[C@H]1Oc2ncc(C#CC3(O)CCCC3)cc2C(=O)N([C@@H](C)CO)C[C@@H]1C | 23 | 10
C[C@@H]1CN([C@H](C)CO)C(=O)c2cc(NS(=O)(=O)c3ccccc3)ccc2O[C@@H]1CN(C)Cc1ccc(-c2ccccc2)cc1 | ? | ·
CC(=O)N1C[C@H]2[C@@H](c3ccccc31)[C@@H](CO)N2C(=O)CC1CC1 | 14 | 15
O=C(C[C@H]1C[C@@H]2c3cc(NS(=O)(=O)c4ccc(F)cc4)ccc3O[C@@H]2[C@H](CO)O1)NCc1cc(F)ccc1F | -17 | -11
C[C@H]1CN([C@@H](C)CO)C(=O)c2cccc(NS(=O)(=O)c3cccs3)c2O[C@H]1CN(C)Cc1ccc(Oc2ccccc2)cc1 | 4 | 7
COc1ccc2c3c([nH]c2c1)[C@H](CO)N(C(=O)NC(C)C)CC31CCN(C(=O)C2CCCCC2)CC1 | -5 | -7
CN(C)CC(=O)Nc1ccc2c(c1)[C@@H]1C[C@H](CC(=O)NCCc3ccccc3)O[C@H](CO)[C@@H]1O2 | 9 | 8
CC(=O)NC[C@H]1[C@H](c2ccccc2)[C@@H](CO)N1C(=O)Cc1cccnc1 | 6 | 6
C/C=C/c1ccc([C@H]2[C@@H](CO)N(Cc3cncnc3)C23CN(C(=O)COC)C3)cc1 | -7 | -1
CNC(=O)C[C@H]1CC[C@H]2[C@@H](COC[C@H](O)CN2C(=O)Nc2cccc(OC)c2)O1 | 14 | 5
C[C@@H]1CN([C@@H](C)CO)C(=O)c2cc(NC(=O)Nc3cccc4ccccc34)ccc2O[C@@H](C)CCCCO[C@H]1CN(C)C(=O)Cc1ccccc1 | 3 | 11
C[C@@H]1CN([C@@H](C)CO)C(=O)c2cc(NC(=O)Cc3ccccc3)ccc2O[C@@H]1CN(C)CC1CCCCC1 | -19 | -2
C[C@@H]1CN([C@@H](C)CO)C(=O)c2cc(NC(=O)Nc3ccc4c(c3)OCO4)ccc2O[C@@H]1CN(C)Cc1ccc(C(F)(F)F)cc1 | ? | ·
COCC#Cc1ccc2c(c1)O[C@@H](CN(C)C(=O)C1CCOCC1)[C@@H](C)CN([C@@H](C)CO)S2(=O)=O | 5 | 10
O=C(NC1CCCC1)N1CCCCN2[C@H](CO)[C@H](c3ccc(-c4ccccc4)cc3)[C@H]2C1 | ? | ·
C[C@H]1CN([C@@H](C)CO)S(=O)(=O)c2ccc(-c3ccccc3)cc2O[C@@H]1CN(C)Cc1cccc(F)c1 | -22 | -21
COc1ccc2c3c([nH]c2c1)[C@@H](CO)N(C(=O)C1CC1)CC31CN(Cc2cccc(F)c2)C1 | ? | ·
C/C=C/c1ccc2c(c1)O[C@H](CN(C)C)[C@@H](C)CN([C@@H](C)CO)S2(=O)=O | 12 | 0
CC(C)NC(=O)N1C[C@@H]2[C@H](c3ccccc31)[C@H](CO)N2C(=O)C1CCCC1 | 14 | 7
COc1ccc(NC(=O)N(C)C[C@@H]2Oc3ccc(NC(=O)NC(C)C)cc3C(=O)N([C@H](C)CO)C[C@H]2C)cc1 | 22 | 10
COc1ccc(S(=O)(=O)N(C)C[C@@H]2Oc3ccc(NC(=O)C4CCCCC4)cc3C(=O)N([C@H](C)CO)C[C@@H]2C)cc1 | 2 | 3
C[C@H]1CN([C@@H](C)CO)C(=O)c2cc(C#CCc3ccccc3)cnc2O[C@@H]1CN(C)C(=O)C1CCOCC1 | 14 | 10
COc1ccc(NC(=O)Nc2ccc3c(c2)CC(=O)N([C@@H](C)CO)C[C@@H](C)[C@@H](CN(C)S(=O)(=O)c2c(C)noc2C)O3)cc1 | 22 | 22
Cc1ccc(S(=O)(=O)N(C)C[C@H]2OCc3ccccc3-c3c(n(C)c4ccccc34)C(=O)N([C@@H](C)CO)C[C@@H]2C)cc1 | ? | ·
C[C@H](CO)N1C[C@H](C)[C@H](CN(C)S(=O)(=O)c2ccccc2)Oc2ccc(NC(=O)Nc3ccc(C(F)(F)F)cc3)cc2CC1=O | -33 | -20
O=C(N[C@H]1CC[C@H](CCn2cc(C3(O)CCCC3)nn2)O[C@H]1CO)C1CCCC1 | -16 | 0
C[C@@H]1CN([C@@H](C)CO)C(=O)c2cc(NS(C)(=O)=O)ccc2O[C@@H]1CN(C)Cc1ccc(C(=O)O)cc1 | 14 | 5
O=C(C[C@@H]1CC[C@H]2[C@@H](COC[C@@H](O)CN2S(=O)(=O)c2cccc(Cl)c2)O1)Nc1ccc(-c2ccccc2)cc1 | ? | ·

A stretch from the list above, for reference:
SMILES | Vaccinia stage | Vaccinia stage Venus
COc1ccc(NC(=O)N(C)C[C@@H]2Oc3ccc(NC(=O)NC(C)C)cc3C(=O)N([C@H](C)CO)C[C@H]2C)cc1 | 22 | 10
COc1ccc(S(=O)(=O)N(C)C[C@@H]2Oc3ccc(NC(=O)C4CCCCC4)cc3C(=O)N([C@H](C)CO)C[C@@H]2C)cc1 | 2 | 3

(continued)
SMILES | Vaccinia stage | Vaccinia stage Venus
CO[C@H]1CN(C)C(=O)c2ccc(NC(=O)NC(C)C)cc2OC[C@H](C)N(Cc2ccc(-c3ccccn3)cc2)C[C@@H]1C | -16 | -12
Cc1noc(C)c1S(=O)(=O)Nc1ccc2c(c1)C(=O)N([C@@H](C)CO)C[C@@H](C)[C@H](CN(C)C)OCCCC[C@@H](C)O2 | 4 | 3
COc1cccc(S(=O)(=O)Nc2ccc3c(c2)[C@H]2C[C@H](CC(=O)NCCc4ccccc4)O[C@H](CO)[C@H]2O3)c1 | -24 | -15
COc1cccc(-c2ccc(C3[C@@H]4CN(Cc5cccc(F)c5)C[C@H]3N4)cc2)c1 (some centres undefined) | ? | ·
Cc1ccccc1-c1ccc([C@H]2[C@H](CO)N3CCCCN(C(=O)CN4CCOCC4)C[C@@H]23)cc1 | 4 | -4
C[C@@H]1CCCCO[C@@H](CN(C)S(=O)(=O)c2cccs2)[C@@H](C)CN([C@H](C)CO)C(=O)c2cc(NC(=O)C3CCCCC3)ccc2O1 | 9 | 0
CN(C)C(=O)C[C@H]1C=C[C@@H](NC(=O)c2ccc(F)cc2)[C@@H](CO)O1 | 7 | 8
C[C@H](O)C#Cc1cnc2c(c1)C(=O)N([C@@H](C)CO)C[C@@H](C)[C@H](CN(C)Cc1cccc(F)c1)O2 | 8 | 3
O=C(N[C@@H]1CC[C@H](CCNS(=O)(=O)c2ccccc2)O[C@H]1CO)c1cnccn1 | 9 | 14
N#C[C@H]1[C@@H](c2ccc(C#CC3CCCCC3)cc2)[C@H](CO)N1C(=O)Cc1ccccn1 | -12 | -6
Cc1cc(C(=O)Nc2cccc3c2O[C@@H](CN(C)C(=O)Nc2c(C)noc2C)[C@@H](C)CN([C@@H](C)CO)C3=O)n(C)n1 | 15 | 14
COc1ccc([Si](C)(C)[C@H]2[C@H](CCO)O[C@@]3(C(=O)N(Cc4cccc(NC(C)=O)c4)c4ccccc43)[C@@H]2C)cc1 | ? | ·
Cc1ccc(-c2ccc3c(c2)O[C@H](CN(C)C(=O)Nc2ccc(C(F)(F)F)cc2)[C@H](C)CN([C@H](C)CO)S3(=O)=O)cc1 | ? | ·
C[C@H](CO)N1C[C@H](C)[C@H](CN(C)Cc2ccccn2)Oc2ncc(C#CCN(C)C)cc2C1=O | 9 | 3
O=C(Cc1ccccn1)N1CC(=O)N2[C@H](C1)[C@H](c1ccc(C#CC3CCCCC3)cc1)[C@@H]2CO | -17 | -10
COCC#Cc1ccc2c(c1)O[C@H](CN(C)C(=O)CN(C)C)[C@H](C)CN([C@H](C)CO)S2(=O)=O | 18 | 7
C[C@H](NC(=O)[C@@H]1[C@@H](CO)[C@@H]2Cn3c(ccc(C4=CCCC4)c3=O)[C@@H]2N1C)c1ccccc1 | 21 | 11
COC(=O)C[C@H]1C=C[C@H](NC(=O)c2ccccc2)[C@H](CO)O1 | 7 | 6
Cc1noc(C)c1S(=O)(=O)Nc1ccc2c(c1)C(=O)N([C@H](C)CO)C[C@H](C)[C@H](CN(C)C(=O)Nc1ccc(C(F)(F)F)cc1)O2 | -11 | -10
C[C@@H]1CCCCO[C@@H](CN(C)S(=O)(=O)c2ccc(Cl)cc2)[C@H](C)CN([C@H](C)CO)C(=O)c2cc(NC(=O)CCC(F)(F)F)ccc2O1 | ? | ·
COCC#Cc1ccc([C@@H]2[C@@H](CO)N3CCCCN(S(=O)(=O)c4ccccc4F)C[C@H]23)cc1 | 2 | -5
CC(C)C#Cc1ccc([C@@H]2[C@H](CO)N3C(=O)CN(C(=O)Cc4ccccc4)C[C@@H]23)cc1 | -5 | -8
CC(C)CC#Cc1ccc2c(c1)O[C@H](CN(C)S(C)(=O)=O)[C@@H](C)CN([C@@H](C)CO)S2(=O)=O | -29 | -22
COc1ccc2c3c([nH]c2c1)[C@H](CO)N(C(C)=O)CC31CN(C(=O)CN2CCOCC2)C1 | 4 | -7
CCCC(=O)Nc1ccc2c(c1)C(=O)N(C)[C@@H]1CC[C@H](CC(=O)NCc3ccccc3)O[C@@H]1CO2 | 10 | 7
C[C@@H]1CN([C@@H](C)CO)C(=O)Cc2cc(NC(=O)Cc3ccccc3)ccc2O[C@H]1CN(C)Cc1ccc2c(c1)OCO2 | ? | ·
CC=Cc1ccc2n(c1=O)C[C@H]1[C@H](CO)[C@@H](C(=O)NCC3CCCCC3)[C@@H]2N1C(C)=O (mixture of isomers) | 4 | -3
CC(C)N1C(=O)[C@@]2(Cc3ccccc31)c1ccccc1C(=O)N(Cc1ccccc1Cl)[C@H]2c1ccc(CO)cc1 | 8 | 7
